Screens as filed in PubChem BioAssay.
CSC inhib – blocks cancer stem cells. inhibition, % at 7.5 µM. 300,000 tested, 1.1% active. cancer stem cell-like cells viability, luminescence;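 active = mean at 75% or more and at least half the replicates too; inconclusive = mean and replicates disagree; tested in HMLE shEcad cells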;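 note: 0% = median of negative and 100% = median of positive control wells; the first replicate is given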
PABP polyA inh – PABP-poly(A) binding inhibition. P11940. PABP-poly(A) RNA binding, fluorescence polarization. inhibition, % at 35 µM. 290,000 tested, 1% active. AID 2014;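 active = 50% or more with normal probe brightness, or confirmed in later tests; inconclusive = above 50% with abnormal brightness, or retests that disagree; inactive = below 50% or failed in later tests; about a fifth of its hits are not listed in these tables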;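 note: calls also rest on retests at 20 µM and on dose response follow-up; controls were probe without protein and protein plus probe with vehicle; some compounds called inactive have numbers as strong as hits; many hits fall short of the cut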
Target sequence (P11940 whole entry, looked up): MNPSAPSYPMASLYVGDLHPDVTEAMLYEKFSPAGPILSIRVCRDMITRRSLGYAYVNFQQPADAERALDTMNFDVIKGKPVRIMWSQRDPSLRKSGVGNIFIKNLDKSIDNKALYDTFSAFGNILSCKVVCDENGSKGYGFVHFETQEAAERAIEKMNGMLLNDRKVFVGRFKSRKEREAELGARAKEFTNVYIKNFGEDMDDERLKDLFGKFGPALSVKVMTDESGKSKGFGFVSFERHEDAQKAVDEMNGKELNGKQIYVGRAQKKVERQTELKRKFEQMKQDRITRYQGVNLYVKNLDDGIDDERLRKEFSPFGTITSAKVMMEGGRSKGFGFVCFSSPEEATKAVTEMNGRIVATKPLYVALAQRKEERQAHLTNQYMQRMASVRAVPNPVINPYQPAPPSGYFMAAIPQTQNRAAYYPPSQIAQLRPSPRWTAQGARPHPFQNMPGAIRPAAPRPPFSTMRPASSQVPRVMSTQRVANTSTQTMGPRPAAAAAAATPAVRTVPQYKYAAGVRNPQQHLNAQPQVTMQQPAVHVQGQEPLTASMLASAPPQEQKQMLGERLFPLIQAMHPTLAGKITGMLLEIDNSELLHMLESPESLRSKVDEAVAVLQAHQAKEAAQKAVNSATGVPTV
eIF4H inh – inhibitors of RNA binding by human eIF4H; Q15056; eIF4H fluorescence polarization binding assay; inhibition, % at 35 µM; 290,000 tested, 0.94% active;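 active = 50% or more with normal probe brightness, or confirmed in later tests; inconclusive = above 50% with abnormal brightness, or retests that disagree; inactive = below 50% or failed in later tests; about a fifth of its hits are not listed in these tables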;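 note: calls also rest on retests at 20 µM and on dose response follow-up; 0% = protein and probe with vehicle and 100% = probe without protein; strong numbers were not always called active; many hits fall short of the cut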
Yeast UUG start – yeast start codon fidelity modulation; S. cerevisiae UUG-firefly luciferase reporter, luminescence/redox ratio; activity score, % at 18.7 µM; 350,000 tested, 0.13% active; AID 602363;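 active = replicate mean at a twofold rise or more, about +100% in these data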;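 note: firefly luciferase made from a UUG start codon reports start codon fidelity; reporter light over untreated wells divided by growth signal over untreated wells; some hits fall short of that in this replicate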
HIV Env fusion – HIV envelope-mediated fusion inhibition | 360,000 tested, 1.1% active | inhibition, % at 12.3 µM | HeLa-JRFL Env/CEM21 cell fusion, luciferase | AID 651610;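 active = mean replicate inhibition score of at least 50 and every replicate individually at or above 50; inconclusive = only one of the two criteria met; inactive = mean below 50 and not all replicates reaching 50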;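 note: 0% = plate neutral controls and 100% = maraviroc near 300 nM; one replicate is shown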
MT1-MMP act inh – MT1-MMP (human) activation inhibition; HT1080 RFP-PRO-GFP cells, GFP/RFP ratio fluorescence, overnight; percent of plate control window, DMSO zero; GFP/RFP ratio change, % at 20 µM; 360,000 tested, 0.061% active; AID 651647;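 active = GFP/RFP ratio change of at least 30% with cell ATP level not reduced by more than half and red fluorescence within 50% of control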; note: strong numbers were not always called active
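Assay system: HT1080 RFP-PRO-GFP cells. Benchmarks: DMSO vehicle wells and RFP-L50D-GFP reporter cell wells. Times: overnight cell settling, then overnight compound exposure, 37 °C, 5% CO2. Compound: 20 µM single dose, 1% DMSO. Read-out basis: GFP/RFP fluorescence ratio.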
Rce1 inhib – blocks yeast Ras-converting enzyme | calls only | yeast membranes, quenched prenylated peptide cleavage fluorescence | AID 2563 | 290,000 tested, 0.27% active | Q03530;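 active = fall in fluorescence gain of 50% or more versus controls, with final raw signal at or below 3038400; inconclusive = same 50% fall but final raw signal above 3038400; inactive = fall in fluorescence gain under 50%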;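 note: plate controls were neutral control wells for no effect and wells lacking membranes for full effect; tested at 10 µM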
MT1-MMP act inh RFP – second read-out of MT1-MMP act inh, no call of its own (marks repeat the call); RFP signal change, %; measured here: RFP expression control read;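 0 = vehicle wells; hits needed this value within 50% of zero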
* marks the source's active call; other numbers are inactive results; i = inactive; ? = inconclusive; . = no result given; & = joins results of further samples.

| mol | CSC inhib | PABP polyA inh | eIF4H inh | Yeast UUG start | HIV Env fusion | MT1-MMP act inh | MT1-MMP act inh RFP | Rce1 inhib |
| --- | --- | --- | --- | --- | --- | --- | --- | --- |
| CCC(C)n1c(-c2cccc(S(=O)(=O)N(CC)CC)c2)n[nH]c1=S (stereo not given) | 1 | 14 | -1 | . | 5 | 0 | -3 | i |
| COc1cc(/C=C/C(=O)OCC(=O)NC(C)c2ccccc2)cc(OC)c1OC (stereo not given) | -12 | . | . | -1 | 1 | 4 | 1 | . |
| CC(NC(=O)CN1CCN(S(=O)(=O)c2ccc(Br)cc2)CC1)c1ccccc1 (stereo not given) | 15 | . | . | 23 | . | 3 | 6 | i |
| O=c1cc(N2CCN(Cc3ccccc3)CC2)[nH]c(=O)n1-c1ccc(Br)cc1 | -4 | 8 | 13 | -15 | 0 | 2 | 2 | i |
| COc1cccc(C2C(C(=O)c3cc4ccccc4o3)=C(O)C(=O)N2CCN2CCOCC2)c1 (stereo not given) | -9 | -2 | 4 | -12 | 20 | 0 | 4 | i |
| CCOc1ccccc1CN1C(=O)c2ccccc2C1C(=O)NCC1CCCO1 (stereo not given) | -6 | 0 | 4 | 0 | . | 0 | 4 | i |
| O=C(O)CCCn1cc(NC(=O)c2sc3ccccc3c2Cl)cn1 | . | 18 | 0 | -5 | -6 | 3 | 6 | i |
| O=C(Nc1ccccc1)C1=C[C@@H](C2CCCCC2)C[C@@H](OCCCCO)O1 | -15 | 0 | 7 | -26 | -28 | 5 | -2 | i |
| CC(=O)Oc1ccc(-c2csnn2)cc1 | -3 | -7 | -8 | -16 | . | 1 | 0 | i |
| COCC1CCN(Cc2nc(-c3ccc(OC)cc3)no2)CC1 | -4 | 2 | -9 | . | 2 | -2 | -1 | i |
| COc1cc(-c2[nH]ncc2CN2CCc3sccc3C2)cc(OC)c1OC | -8 | 3 | -4 | -14 | -2 | 2 | -1 | i |
| CCN(CC)CCN(C(=O)c1ccc2c(c1)OCCO2)c1nc2ccc(C)cc2s1 | 14 | 1 | -13 | 12 | 5 | 3 | 6 | i |
| Cc1ncoc1C(=O)Nc1nccs1 | -9 | 0 | -4 | -11 | -33 | -6 | 2 | i |
| CCNC(=S)N/N=C/c1ccc(C(=O)O)cc1 | -10 | 7 | -9 | . | 15 | 1 | 5 | i |
| CCOc1ccc(S(=O)(=O)Nc2cccc(-c3ccc(N4CCCCCC4)nn3)c2)cc1 | -7 | . | . | -8 | -37 | 4 | -3 | i |
| O=C(N/N=C/c1ccc([N+](=O)[O-])o1)c1ccccc1-n1cccc1 | 0 | 3 | 17 | -1 | 18 | -4 | -13 | i |
| CN(C)S(=O)(=O)c1ccc(S(=O)(=O)NCCN2CCOCC2)cc1 | -18 | 9 | 8 | -1 | 5 | 6 | -2 | i |
| CC(C)C(N)c1csc(NC(=O)Nc2ccccc2C(C)(C)C)n1 (stereo not given) | . | . | . | -29 | -9 | -9 | -5 | . |
| CN(C)c1ccc(-c2ccnc3c2CC(C)(C(=O)NCc2cccs2)O3)cc1 (stereo not given) | . | . | . | -15 | -115 | -5 | -11 | . |
| Cc1cc(C)cc(C(=O)n2cnnc2N)c1 | 3 | -2 | 1 | -14 | . | -2 | 2 | i |
| O=C(NCCc1ccccc1)c1cc(S(=O)(=O)N2CCOCC2)ccc1F | -3 | 12 | 2 | -20 | 2 | -8 | -14 | i |
| COc1cccc(-c2nc(CS(=O)CC(=O)NC3CC3)c(C)o2)c1 (stereo not given) | . | 5 | -3 | 2 | 43 | -2 | 2 | i |
| CCOc1ccc(Nc2nc3ccccc3n3nnnc23)cc1 | 5 | 26 | 41 | -17 | -25 | -2 | 6 | i |
| O=C(CNC(=O)c1ccc(Br)o1)NCc1ccccc1Cl | . | 3 | -6 | -4 | 14 | 0 | 1 | i |
| COc1ccccc1NC(=O)CSc1nnc(-c2ccoc2C)n1CC1CCCO1 (stereo not given) | -15 | 0 | -7 | -20 | 7 | 0 | 3 | i |

The list continues.
| mol | CSC inhib | PABP polyA inh | eIF4H inh | Yeast UUG start | HIV Env fusion | MT1-MMP act inh | MT1-MMP act inh RFP | Rce1 inhib |
| --- | --- | --- | --- | --- | --- | --- | --- | --- |
| CCOc1ccc(C/C(O)=C2\C(=O)CC(C)(C)CC2=NCC(=O)O)cc1OCC | 11 | -5 | 0 | -2 | -2 | -1 | -3 | i |
| COc1ccc(-c2cc(=O)c3cc(C)ccc3[nH]2)cc1 | 3 | 4 | 0 | -2 | -104 | 0 | -1 | i |
| O=C(CNCc1ccccc1Cl)Nc1ccc(C(=O)N2CCCCC2)cc1 | 27 | 6 | 9 | 10 | 6 | 4 | 0 | i |
| Cc1ccc(NC(=O)NNC(=O)c2cc3ccccc3cc2O)cc1C | -7 | -10 | 0 | 0 | 0 | -5 | 4 | i |
| Cc1cc(SCC(=O)N/N=C/c2ccco2)nc2ccccc12 | -15 | 1 | -3 | . | -18 | 0 | -5 | i |
| O=C1NC2CCc3nc4ccccc4c(=O)n3C2=Nc2ccccc21 (stereo not given) | 7 | 16 | 20 | -21 | . | -3 | -1 | i |
| COC(=O)C1=C(CSCc2ccco2)NC(=O)NC1c1cc(C)ccc1C (stereo not given) | -13 | -2 | -6 | -13 | . | -3 | -1 | i |
| CCC(=O)Nc1nc2ccccc2n1Cc1ccccc1C | -6 | 4 | 6 | -15 | 31 | 15 | 4 | i |
| Cc1ccc(C2CC(c3ccco3)n3ncnc3N2)cc1 (stereo not given) | -9 | -4 | -8 | -22 | 5 | 2 | 1 | i |
| O=C(N/N=C/c1ccc(OC(=O)c2ccco2)cc1)c1ccc[n+]([O-])c1 | -8 | . | . | -11 | 6 | -2 | 1 | i |
| CS/C(=N\S(=O)(=O)c1cccs1)Nc1ccc(Br)cc1F | -11 | 4 | 2 | 9&-8 | 7 | 5&1 | 1&5 | i |
| O=C(COC(=O)Cc1ccc(Cl)c(Cl)c1)NCc1ccco1 | 3 | . | . | . | -11 | 4 | 4 | i |
| CCN(CCO)c1ccc(-n2c(N)c(C(=O)OC)c3nc4ccccc4nc32)cc1 | -10 | 47 | -3 | -11 | . | 3 | -5 | . |
| Cc1cccc(-n2c(C)cc(/C=N/NC(N)=S)c2C)c1 | 7 | -1 | -7 | -20 | -5 | -4 | -3 | i |
| COc1ccc(Cl)cc1NC(=O)c1[nH]nc(OC)c1[N+](=O)[O-] | 11 | 6 | 0 | . | 3 | -1 | -3 | i |
| O=C(NCCS(=O)(=O)N1CCN(c2ccc(F)cc2)CC1)c1ccc2c(c1)OCO2 | -7 | . | . | -19 | -28 | 4 | 3 | i |
| Cc1ccc(-c2cc(C(F)F)n3ncc(C(=O)N4CCN(c5ccccn5)CC4)c3n2)cc1 | -18 | -8 | -6 | -1 | 25 | 0 | 0 | i |
| O=S(=O)(c1ccccc1)c1nc(-c2ccco2)oc1NCCCN1CCOCC1 | -14 | 5 | -6 | -8 | . | 0 | 2 | i |
| COc1ccc(S(=O)(=O)NC(CC(=O)NCC2CCCO2)c2ccco2)cc1 (stereo not given) | -1 | 1 | -2 | -14 | . | 4 | 4 | i |
| O=C(NCc1cccnc1)c1cccc(S(=O)(=O)NCc2ccccc2)c1 | 4 | . | . | . | . | 2 | -2 | i |
| CN(c1ccc(C(=O)NC2CC3CCC2C3)cc1)S(C)(=O)=O (stereo not given) | -12 | 1 | -3 | 3 | -22 | -1 | 2 | i |
| CCCn1c(N)c(C(=O)CSc2nnc(N)s2)c(=O)[nH]c1=O | . | . | . | -18 | -4 | 3 | 0 | . |
| CCS(=O)(=O)Nc1ccc(C2=NN(C(C)=O)C(c3cccs3)C2)cc1 (stereo not given) | 33 | 6 | 4 | . | -69 | -5 | -7 | . |
| CCOc1ccc(Cn2nnc(C(=O)Nc3ccc(OC)cc3OC)c2N)cc1 | -15 | 7 | -4 | -10 | 0 | 0 | 2 | i |
| CCOC(=O)C1CCCc2c1[nH]c1c(C(N)=O)cccc21 (stereo not given) | 16 | 3 | 3 | . | . | 0 | 8 | i |

Carrying on.
| mol | CSC inhib | PABP polyA inh | eIF4H inh | Yeast UUG start | HIV Env fusion | MT1-MMP act inh | MT1-MMP act inh RFP | Rce1 inhib |
| --- | --- | --- | --- | --- | --- | --- | --- | --- |
| CCC(=O)N1CCC2(CC1)Oc1ccc(Cl)cc1C(=O)C21CC(c2cccnc2)=NO1 (stereo not given) | 3 | -2 | 4 | -8 | . | 5 | 2 | i |
| CCOc1ccc2oc(C(=O)NNC(=O)c3csc(N4CCOCC4)n3)c(C)c2c1 | 1 | 10 | 6 | 12 | 1 | -1 | 5 | i |
| Cc1cnc(C(=O)OC(C)C(=O)Nc2ccccc2-c2ccccc2)cn1 (stereo not given) | -2 | . | . | -7 | . | 3 | -2 | i |
| CSCC(=O)NCC1(N(C)Cc2ccccc2)Cc2ccccc2C1 | -15 | 2 | -1 | 0 | -9 | 2 | 1 | i |
| O=C(/C=C/c1ccccc1Cl)c1cccnc1 | 18 | 2 | 8 | -18 | . | 0 | -1 | i |
| CCN1CCN(C(=O)c2cc3cc4cc(OC)ccc4nc3s2)CC1 | -11 | -6 | -7 | -2 | . | 5 | 2 | i |
| Cc1cc(C)c(C(=O)N(C)C2CCCN(Cc3ccccc3F)C2)o1 (stereo not given) | 4 | -9 | -11 | -15 | 24 | -4 | -2 | i |
| Cc1cc(=O)n2nc(N3CCCC3C(=O)NCCCN3CCCCC3)sc2n1 (stereo not given) | -9 | -5 | -5 | -17 | . | 0 | 0 | i |
| CC(C)Cc1nnc(NC(=O)CSc2nc(=O)cc(N)n2-c2ccccc2)s1 | -10 | 7 | -11 | -17 | . | 4 | 3 | i |
| CCOc1ccc(NC(=O)CCNS(=O)(=O)c2ccc3c(c2)oc(=O)n3C)cc1 | 0 | 4 | -5 | 1 | 1 | 0 | 0 | i |
| COc1ccc(N2CC(C(=O)NCCC3=CCCCC3)CC2=O)cc1 (stereo not given) | -24 | 4 | 6 | -1 | -9 | -2 | 4 | i |
| CCN(C(=O)CSc1nc2ccc(OC)cc2[nH]1)C1CCS(=O)(=O)C1 (stereo not given) | -1 | . | . | -6 | -104 | -1 | 3 | i |
| CCN(c1ccccc1)S(=O)(=O)c1ccc(OC)c(NC(=O)CCc2nc3ccccc3c(=O)[nH]2)c1 | -7 | . | . | 10 | 20 | 0 | -5 | i |
| Cc1cc(C(=O)CSc2nnc(-c3ccccc3F)o2)c(C)n1Cc1cccs1 | 57 | ? | ? | -6 | -442 | -3 | 3 | i |
| Cc1cc(C)c2oc(C(=O)Nc3nnc(C(C)C)s3)cc(=O)c2c1 | -12 | 29 | -18 | . | 12 | 0 | -1 | . |
| O=c1[nH][nH]c2c(N=Cc3ccccc3O)ccc(F)c12 | . | ? | ? | -11 | . | 2 | 6 | . |
| Cc1ccc(S(=O)(=O)NC(=NC(Cc2ccccc2)C(=O)O)c2ccccc2)cc1 (stereo not given) | 2 | -5 | -16 | 4 | -6 | 0 | 3 | . |
| CCCC(=O)Nc1ccc(-c2cnc(-c3ccc(NC(=O)CCC)cc3)nc2)cc1 | -9 | -12 | -10 | 4 | . | 1 | 4 | i |
| O=C(CSCc1c(Cl)cccc1Cl)Nc1nccs1 | -12 | -6 | -9 | -5 | i | -3 | -3 | i |
| C[C@H](CO)N1C[C@H](C)[C@@H](CN(C)S(=O)(=O)c2cccs2)Oc2ccc(NS(=O)(=O)c3ccc(F)cc3)cc2C1=O | . | . | . | -8 | -27 | -3 | -4 | . |
| CCn1ccc(C(=O)Nc2ccccc2SC)n1 | -2 | -6 | -3 | . | -13 | -2 | 0 | i |
| Fc1cccc(C[n+]2csc3ccccc32)c1 | . | 9 | 4 | -17 | -87 | 0 | 1 | i |
| CC(=O)Nc1ccc2c(c1)Cc1c(F)cccc1-2 | . | . | . | 1 | -68 | 3 | 1 | . |
